# Screening results from PubChem BioAssay.
# miR-21 reporter – miR-21 reporter, rising signal; HeLa miR-21 FLuc reporter, luciferase, 48 h; Potency, µM (doses to about 38.3 µM), without a hit: at the top dose reporter change, positive = more light; 340,000 tested, under 10 active; AID 2288; active = well fitted rising curve with a large enough effect; inconclusive = small, poorly fitted or top-dose-only effect; inactive = no such curve, though single readings can be large or run the other way;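 note: % of control where 0% means no effect; miR-21 action dims this reporter so a rising signal means less miR-21 action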
#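 HeLa cells endogenously expressing miR-21, stably carrying CMV-driven firefly luciferase with a downstream miR-21 binding site, 2000 cells/well. Titrations up to approximately 40 uM, 48 hours; luciferase luminescence read.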
# GLA inh pH 4.5 – blocks human alpha-galactosidase A at pH 4.5; P06280; purified enzyme, 4-MU-alpha-Gal fluorescence, pH 4.5; activity change, negative = inhibition, % at 105 µM; 230,000 tested, under 10 active; AID 1467; inconclusive = small, poorly fitted or top-dose-only inhibition, or a rising curve; inactive = flat fitted curve, though single readings scatter; no compound was filed as active;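 note: 0% = full activity with enzyme and -100% = basal without enzyme; dose as in the result columns while the protocol names 77 µM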
# Target sequence (P06280 whole entry, looked up): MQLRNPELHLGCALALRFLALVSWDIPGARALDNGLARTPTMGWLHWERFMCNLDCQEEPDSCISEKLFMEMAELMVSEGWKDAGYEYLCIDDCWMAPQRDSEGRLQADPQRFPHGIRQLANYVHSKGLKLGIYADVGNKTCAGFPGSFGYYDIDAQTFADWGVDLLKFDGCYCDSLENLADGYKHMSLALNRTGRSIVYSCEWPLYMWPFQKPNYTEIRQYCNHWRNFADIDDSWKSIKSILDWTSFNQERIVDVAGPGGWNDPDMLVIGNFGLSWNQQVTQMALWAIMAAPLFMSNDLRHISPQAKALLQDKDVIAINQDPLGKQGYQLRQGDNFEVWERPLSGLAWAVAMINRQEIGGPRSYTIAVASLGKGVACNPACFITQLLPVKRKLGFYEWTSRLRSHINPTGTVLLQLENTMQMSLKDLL
# Rango dissoc inh – prevents RanGTP from dissociating the Rango-importin beta complex; O95149+P62826; Biochemical FRET Rango-importin beta, RanGTP-induced dissociation; Potency, µM (highest dose often 46.1 µM), for the others: at the top dose activity change, negative = inhibition; 0.071% of 340,000 active; AID 540253; active means falling FRET ratio curve, often poorly fitted, with flat reads before Ran was added; inconclusive means other falling curves, or compound fluorescence or quenching; inactive means flat or rising ratio curve;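 note: potency is the fitted concentration of half-maximal effect; % of control where 0% means no effect; nearly all actives have a fitted effect of over 45% in size; -100% = wells without RanGTP and RCC1; the record marks most hits as doubtful in a second field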
#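 Compounds preincubate 5 min with complex of recombinant Rango and importin beta in PBS with 1 mM DTT. Ran (0.6 uM) loaded with 2 mM GTP plus 0.2 uM RCC1 starts dissociation; FRET is recorded 45 min later.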
# Rango complex inh – Rango-importin beta binding inhibition | Q14974 | Rango CFP/YFP FRET sensor + importin beta, 45 min | Potency, µM (series often up to 92.2 µM), for inactives: top-dose inhibition of complex formation | 0.031% of 340,000 active | AID 540263; active = rising FRET ratio curve, often small or poorly fitted; inconclusive = mostly compound fluorescence or quenching in the first reads; inactive = flat curves in all reads;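 note: potency is the fitted concentration of half-maximal effect; 0% = DMSO wells and 100% = buffer wells lacking importin beta; nearly all actives have a fitted effect of over 15% in size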
#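 FRET biosensor Rango (snurportin 1 IBB between N-terminal EYFP and C-terminal Cerulean), 50 nM in PBS/1 mM DTT/0.02% Tween-20/0.1% BSA, preincubated 5 min RT with compound; 0.125 microM importin beta added, 45 min RT, CFP/YFP FRET ratio read.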
# The depositor's hits bear a star; ? = inconclusive; nt = no result given; & = joins results of further samples.
SMILES	miR-21 reporter	GLA inh pH 4.5	Rango dissoc inh	Rango complex inh
CCc1ccc(S(=O)(=O)N2CCN(Cc3ccco3)CC2)cc1	-4%	nt	14%	-1.1%
COC(=O)c1cc(NC(=O)COC(=O)C2COc3ccccc3O2)cc(C(=O)OC)c1 (stereo not given)	nt	nt	-2%	6.4%
CCOc1ccccc1NC(=O)c1oc2ccccc2c1NC(=O)C1CCCO1 (stereo not given)	6%	-6	10%	-2.1%
COc1cc(C(=O)Nc2c(C)cc(C)cc2C)c([N+](=O)[O-])cc1OC	-2%	5	1%	-3.2%
Cc1cc(C(F)F)n2nc(C(=O)Nc3ccccc3F)nc2n1	-11%	1	-6%	0.4%
CCOc1ccc(/C=C2\SC(=S)N(C(C(=O)O)c3ccccc3)C2=O)cc1OC (stereo not given)	3%	-14	-25%	?
O=C1C2C3C=CC(C2C(=O)N1c1cccc(O)c1)C1C2C(=O)N(c4cccc(O)c4)C(=O)C2C31 (stereo not given)	0%	10	19%	-2.0%
Cc1ccc2[nH]cc(C(=O)CN3CCC4(CC3)OCCO4)c2c1	-19%	3	3%	0.9%
O=[N+]([O-])c1ccc(N2CCCCC2)nc1	-6%	-11	0%	0.7%
CC(C)(C)NC(=O)CSc1nc(-c2ccc(F)cc2)cs1	-29%	-19	-10%	1.7%
CC(C)c1ccc(OCC(=O)N(c2ccccn2)C2CCCCC2)cc1	-1%	-9	1%	-2.8%
COC(=O)CN=Cc1c(O)n(-c2ccc(Cl)cn2)c(=O)c2ccccc12	0%	-10	-10%	-0.2%
O=C(NC1CCCC1)C(c1ccccn1)N(C(=O)c1csnn1)c1ccccc1F (stereo not given)	-1%	nt	-3%	-0.6%
Clc1ccc(-c2cn3cccnc3n2)cc1Cl	-53%	7	-10%	-0.2%
CN(C)c1nc(N)nc(/C(C#N)=C/C2CC3C=CC2C3)n1 (stereo not given)	-4%	0	?	?
Cc1cc(NC(=O)c2cccc(N3C(=O)CCC3=O)c2)no1	-4%	-2	9%	3.9%
CN(C)CCCNC1=CC(=O)OC12CCCCC2	-5%	4	0%	0.8%
CC(=O)Nc1ccc(/C(C)=N\NC(=O)c2ccc(-c3ccccc3)cc2)cc1	-6%	-3	nt	nt
Cc1nn(-c2nc3ccccc3[nH]2)c(N)c1-c1ccc(Cl)cc1	-11%	5	4%	-2.1%
COc1cc(CNc2nc(C)c([N+](=O)[O-])c(C)c2C#N)cc(OC)c1	-8%	-24	-7%	-0.2%

# Three entries from above, arranged by SMILES length, rising.
SMILES	miR-21 reporter	GLA inh pH 4.5	Rango dissoc inh	Rango complex inh
Cc1cc(C(F)F)n2nc(C(=O)Nc3ccccc3F)nc2n1	-11%	1	-6%	0.4%
O=C(NC1CCCC1)C(c1ccccn1)N(C(=O)c1csnn1)c1ccccc1F (stereo not given)	-1%	nt	-3%	-0.6%
O=C1C2C3C=CC(C2C(=O)N1c1cccc(O)c1)C1C2C(=O)N(c4cccc(O)c4)C(=O)C2C31 (stereo not given)	0%	10	19%	-2.0%

# Remaining list, next part:
SMILES	miR-21 reporter	GLA inh pH 4.5	Rango dissoc inh	Rango complex inh
CCOC(=O)N1CCN(c2cc(C)nc3nc(C)nn23)CC1	-1%	-5	0%	-0.7%
CC(C)N(C)CCOC(=O)c1ccc2c(c1)OCCO2	-3%	-4	2%	4.7%
O=C1CCCc2c1cc(C(=O)O)c(=O)n2-c1ccccc1	1%	0	-17%	-0.5%
CC(SC(=S)N1CCCC1)C(=O)O (stereo not given)	2%	0	-8%	?
CCOC(=O)N1CCN(S(=O)(=O)N2CCCC(C(=O)NCCCN3CCCCC3)C2)CC1 (stereo not given)	3%	nt	0%	3.0%
COc1ccc(C(=O)c2ccc(OC)c(N)c2)cc1N	-3%	-4	-4%	-1.9%
CC(=C/c1ccccc1)/C=N/Nc1nc(N2CCCCC2)nc(N2CCCCC2)n1	-6%	-1	15%	2.6%
COc1ccc(C(=O)Nc2cc(OC)nc(OC)n2)cc1	-42%	-4	-4%	?
Cn1c(CSc2nc3ccccc3s2)nnc1SCC(=O)NCc1ccccn1	13%	-17	-13%	-1.8%
O=C1c2ccccc2C(=O)N1CCCCCCc1ccccc1	nt	nt	32%	-4.4%
Cc1cccc(-c2nsc(SCC(=O)NCc3ccc4c(c3)OCO4)n2)c1	-15%	-2	-4%	5.2%
Cn1c(N)c(C(=O)COC(=O)c2cc(C(F)(F)F)nc3ccccc23)c(=O)n(Cc2ccccc2)c1=O	-5%	0&-20	?	?
O=C(CN1CCOCC1)Nc1ccc(Oc2ccccc2)cc1	-14%	6	-3%	0.0%
O=C(Cc1sc(Nc2ccccc2)nc1-c1ccccc1)NCc1ccccn1	-38%	-9	1%	-0.4%
CN(C)S(=O)(=O)c1cccc(NC(=O)COC(=O)c2cc(=O)[nH]c(=O)[nH]2)c1	1%	7	-5%	4.3%
COc1cc([N+](=O)[O-])ccc1NC(=S)NC(=O)CC(C)(C)C	2%	-2	-3%	-0.5%
O=C(CSc1nc2ccccc2s1)N/N=C/c1cc([N+](=O)[O-])ccc1O	14%	-1	0%	0.6%
CCOc1ccc(C(=O)CCC(=O)NCC(=O)OCc2ccccc2)cc1OCC	-3%	nt	-1%	-0.4%
Cc1ccc(C(C)C)c(OCCNCCc2ccccc2)c1	8%	nt	0%	3.3%
CCOC(=O)CSc1nc(-c2ccccc2)cc(C(F)(F)F)n1	-4%	-5	3%	-6.2%

# Grouped by structure: the compounds so far with two or more sulfur atoms (six)
SMILES	miR-21 reporter	GLA inh pH 4.5	Rango dissoc inh	Rango complex inh
CCOc1ccc(/C=C2\SC(=S)N(C(C(=O)O)c3ccccc3)C2=O)cc1OC (stereo not given)	3%	-14	-25%	?
CC(C)(C)NC(=O)CSc1nc(-c2ccc(F)cc2)cs1	-29%	-19	-10%	1.7%
CC(SC(=S)N1CCCC1)C(=O)O (stereo not given)	2%	0	-8%	?
Cn1c(CSc2nc3ccccc3s2)nnc1SCC(=O)NCc1ccccn1	13%	-17	-13%	-1.8%
Cc1cccc(-c2nsc(SCC(=O)NCc3ccc4c(c3)OCO4)n2)c1	-15%	-2	-4%	5.2%
O=C(CSc1nc2ccccc2s1)N/N=C/c1cc([N+](=O)[O-])ccc1O	14%	-1	0%	0.6%

# Next section.
SMILES	miR-21 reporter	GLA inh pH 4.5	Rango dissoc inh	Rango complex inh
CC(c1ccon1)N(C)C(=O)CCc1nnc(CCCCc2ccccc2)o1 (stereo not given)	-8%	14	-7%	1.9%
COc1cc2c(cc1NC(=O)Nc1ccc(F)cc1)oc1ccccc12	-5%	1	14%	-0.1%
COC(=O)c1ccc(CN2CCN(Cc3ccc(C(=O)OC)o3)CC2)o1	1%	0	-7%	2.4%
CCCC(=O)Nc1nc2n(n1)C(c1ccccc1)CC(=O)N2 (stereo not given)	-5%	-4	29%	3.5%
N#CCCN1CCN(S(=O)(=O)c2cc(Cl)ccc2Cl)CC1	-3%	2	-1%	0.4%
Cc1ccc(SCC(=O)OCC(=O)NC2(C#N)CCCCC2)cc1	1%	nt	9%	?
CC1c2ccccc2SC(CCCN(C)C)c2ccccc21 (stereo not given)	-1%	10	-17%	?
CCC1(CC)NC(=O)N(CC(=O)OCC(=O)Nc2ccccc2OC(F)F)C1=O	nt	nt	-2%	-3.3%
CCOC(=O)N1CCN(S(=O)(=O)N2CCCC(C(=O)NCCc3ccc(C)cc3)C2)CC1 (stereo not given)	-2%	nt	0%	0.0%
CCn1c(C)[n+](CC)c2ccc(S(=O)(=O)N(C)C)cc21	0%	12	-13%	-0.9%
NCCCCCC(=O)N/N=C/c1coc2ccccc2c1=O	0%	-10	21%	2.1%
COc1ccc(-c2csc(NC(=O)c3ccccc3OC)c2C(=O)O)cc1OC	-5%	nt	1%	1.0%
O=c1[nH]c(C2CCCN(S(=O)(=O)c3ccccc3)C2)nc2c1nnn2Cc1ccc2c(c1)OCCO2 (stereo not given)	-2%	nt	-13%	2.0%
CCOC(=O)c1c(/N=C/N(C)C)sc(/C=N/Nc2ccccc2)c1-c1ccc(Cl)cc1	14%	-15	?	?
C=CCN(Cc1ccc(Cl)s1)C(=O)c1ccc(F)c(S(=O)(=O)N2CCOCC2)c1	nt	nt	?	-2.8%
COc1ccc(/C=N/NC(N)=S)cc1	-10%	4	-16%	1.0%
O=C(c1ccc(Cl)c(S(=O)(=O)N2CCOCC2)c1)N1CCc2ccccc2C1	nt	nt	1%	-2.6%
CCN(C(=O)COC(=O)/C=C/c1ccc(Cl)c(Cl)c1)c1c(N)n(Cc2ccccc2)c(=O)[nH]c1=O	nt	nt	0%	-0.5%
O=C(CCc1ccccc1)NNC(=S)NC(=O)c1ccccc1	-11%	-3	4%	-4.4%
CCN(CC)CCN(C(=O)c1ccccc1OC)c1nc2ccc(F)cc2s1	-22%	-1	-11%	4.6%

# The list goes on:
SMILES	miR-21 reporter	GLA inh pH 4.5	Rango dissoc inh	Rango complex inh
O=C(COC(=O)Cc1cccc(F)c1)NC(=O)NC1CCCCC1	nt	nt	5%	-1.7%
O=C(CSc1nc(-c2ccco2)cc(C(F)(F)F)n1)NCCN1CCOCC1	-2%	-1	10%	-1.8%
CCc1nnc(NC(=O)CCC(=O)N2CCN(CCc3ccccc3)CC2)s1	0%	12	3%	0.1%
Cc1ccc(NC2=CC(=O)CC(c3ccco3)C2)c(N)c1 (stereo not given)	-23%	7	3%	4.1%
N#CCCNC(=O)CCN1CCOCC1	4%	3	-21%	-0.4%
Cc1cc(=O)[nH]c2nnc(-c3ccc(Cl)cc3)n12	-27%	nt	1%	-0.1%
Cc1ccc(-n2c(-c3ccc(Br)cc3)c[n+]3c2CCc2ccc4cccnc4c2-3)cc1	?	15	-5%	3.5%
CC(=O)N1c2ccc(S(=O)(=O)N3CCCC3)cc2CC1C(=O)NCc1ccccc1F (stereo not given)	-2%	nt	-5%	-0.9%
COCc1[nH]nc2c1C(c1ccc(F)cc1F)C(C#N)=C(N)O2 (stereo not given)	-2%	1	15%	-4.3%
COc1ccc(OC)c(NC(=O)C(C)N2c3cccc4cccc(c34)S2(=O)=O)c1 (stereo not given)	1%	nt	-1%	0.9%
Cc1cccc(NC(=S)N(CCN2CCOCC2)Cc2ccccc2F)c1	0%	8	9%	0.1%
COC(=O)c1ccc(CSc2nnc(N)s2)cc1	-33%	6	2%	-2.0%

# Only part of the results is shown; count on the stated rates, not on these rows.
